# PrP UTR inh: suppresses PrP 5' UTR mRNA reporter expression; cell-based PrP 5' UTR mRNA reporter, plate reader; actives 0.35% (n = 340,000); inhibition, % (no concentration beside the values); AID 488862;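 active = every replicate at 50% or more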;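 also: 0 = median of the neutral control wells; tested in H4 reporter cells; numbers are from one replicate; inactives centre near -14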
# ugtP null kill: compounds lethal to S. aureus RN4220 ugtP deletion mutant; OD600 growth, 16 h; some inactives read as strong as hits; growth inhibition, % (concentration not given with the values); AID 1259309; actives 0.54% (n = 330,000);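 active = z-score under -3 and OD600 up to 0.15 on both plates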;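 also: plate controls were untreated wells for no effect and antibiotic for full effect; wells of about 80 µL received 100 nL stock; the first replicate is given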
# Sa RN4220 lethal: kills Staphylococcus aureus RN4220; actives 0.33% (n = 330,000); S. aureus RN4220 growth, OD600, 16 h; inhibition, % (test concentration not listed);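 active = z-score of -3 or lower and OD600 up to 0.18 on both plates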;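 also: plate controls were untreated cells for no effect and reference antibiotic for full effect; stock transfer was 100 nL into about 80 µL; one replicate is shown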
# Bead autofluor: compound fluorescence in toxin protease inhibitor counterscreen | compound autofluorescence counterscreen, microsphere flow cytometry; stronger effect = higher value | AID 624483 | actives 3.1% (n = 360,000) | fluorescence intensity (test concentration not listed);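 active = at least 3 SD above the mean of all compounds, about 16000 in these data; inconclusive = too few beads counted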;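 also: 100 nL of 1 mM stock went into each well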
# Mtb hypoxia inh: Mtb hypoxia fluorescent reporter inhibition; M. tuberculosis hypoxia-regulated fluorescent reporter, fluorescence; fluorescence inhibition, % (no concentration beside the values); actives 0.1% (n = 300,000);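 active = 35 to 45% if threefold the growth effect, above 45% if 1.5-fold the growth effect; inactive = the rest, general growth blockers included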;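 also: wells of about 50 µL received 100 nL stock; 0% = vehicle wells and 100% = reference inhibitor wells; whole bacteria with a GFP reporter of the hypoxia response; strong numbers were not always called active; many hits fall short of the cut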
# BJeLR lethal: kills HRASV12-expressing BJeLR cells. BJeLR (HRASV12) viability, CellTiter-Glo ATP luminescence, 48 h; reference of the scale not given here. inhibition, % (concentration not given with the values). actives 0.17% (n = 300,000). AID 1554;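 active = replicate mean above 50%; inconclusive = above 50% but judged a plate artefact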;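 also: 50 nL library stock added to about 25 µL; numbers are from one replicate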
# Mtb hypoxia inh growth: recorded beside Mtb hypoxia inh, whose call it bears; growth inhibition, %; measured here: M. tuberculosis growth (absorbance);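 0% = vehicle and 100% = reference antibiotic; read after six days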
# * = called active by the depositor; ? = inconclusive; . = not tested or not shown.
SMILES	Bead autofluor	ugtP null kill	Mtb hypoxia inh	PrP UTR inh	BJeLR lethal	Sa RN4220 lethal	Mtb hypoxia inh growth
COc1ccccc1N1CCN(CC(=O)c2ccc3ccn(C(C)=O)c3c2)CC1	6213	.	.	-5	-4	.	.
COc1ccc2nc(SCC(=O)NCc3ccc4c(c3)OCO4)[nH]c2c1	2057	8	3	-13	0	0.7	5
CCOc1ccccc1NC(=S)NCCc1ccc(F)cc1	4311	-4	-9	-40	-6	2.5	2
Cc1cc(-c2nn(-c3ccccc3F)cc2CN2CCN(c3ccccn3)CC2)c(C)s1	4303	0	-1	-3	-1	16	-5
O=c1[nH]cnc(O)c1C(c1ccc(Br)cc1)c1c(O)nc[nH]c1=O	4913	1	3	-20	7	-0.6	-5
COc1cc(S(=O)(=O)N2CCCC2)c(C)cc1C	2293	-3	9	-24	-2	7.0	12
COc1cccc(C=NNC(=O)CN(C2=NS(=O)(=O)c3ccccc32)c2ccccc2)c1	.	5	12	.	.	1.9	7
CCOC(=O)c1c(NC(=O)CSc2nnnn2C)sc(C)c1C	4441	3	.	-7	-6	-0.4	.
O=C(O)CCC(NC(=S)Nc1ccccc1)C(=O)O (stereo unspecified)	3622	7	0	-25	-8	3.7	0
COCCN(C(=O)c1ccc(-c2ccc(Cl)cc2)o1)c1c(N)n(Cc2ccccc2)c(=O)[nH]c1=O	6312	-6	2	-17	-3	2.7	0
CC(C)c1ccccc1NC(=O)COC(=O)Cc1cccc(C(F)(F)F)c1	2007	-1	7	-3	-6	11	11
Cc1ccc(NC(=O)c2nc[nH]c2C(=O)N2CCN(C(=O)OC(C)(C)C)CC2)cc1	3668	0	-1	-26	.	11	5
Cc1ccc(-n2sc3ccccc3c2=O)cc1S(=O)(=O)N1CCCCC1	3545	4	3	-7	-2	2.1	-1
Cc1cc(Br)ccc1SCC(=O)NNC(=O)c1ccco1	5507	2	2	-10	.	2.4	5
O=C(Cc1cccs1)NN=Cc1ccccc1	.	1	2	.	.	2.8	2

# Entries of single compounds as entered above. Order of screens: Bead autofluor | ugtP null kill | Mtb hypoxia inh | PrP UTR inh | BJeLR lethal | Sa RN4220 lethal | Mtb hypoxia inh growth
# `Cc1cc(Br)ccc1SCC(=O)NNC(=O)c1ccco1` as listed: 5507 | 2 | 2 | -10 | . | 2.4 | 5
# `COCCN(C(=O)c1ccc(-c2ccc(Cl)cc2)o1)c1c(N)n(Cc2ccccc2)c(=O)[nH]c1=O` as listed: 6312 | -6 | 2 | -17 | -3 | 2.7 | 0
# `COc1cccc(C=NNC(=O)CN(C2=NS(=O)(=O)c3ccccc32)c2ccccc2)c1` as listed: . | 5 | 12 | . | . | 1.9 | 7
# `CC(C)c1ccccc1NC(=O)COC(=O)Cc1cccc(C(F)(F)F)c1` as listed: 2007 | -1 | 7 | -3 | -6 | 11 | 11
# `CCOc1ccccc1NC(=S)NCCc1ccc(F)cc1` as listed: 4311 | -4 | -9 | -40 | -6 | 2.5 | 2

# The list goes on.
SMILES	Bead autofluor	ugtP null kill	Mtb hypoxia inh	PrP UTR inh	BJeLR lethal	Sa RN4220 lethal	Mtb hypoxia inh growth
S=C(NCCN1CCOCC1)N/N=C/c1cccs1	4605	.	.	-14	2	.	.
CC(C)(C)NC(=O)CCN(/N=C/c1ccncc1)C1=NS(=O)(=O)c2ccccc21	3559	.	.	-7	1	.	.
COc1ccccc1-c1nnc(SCC(O)=C(C#N)c2nc3ccccc3[nH]2)n1C1CCCCC1	.	-14	6	.	.	2.4	2
CC(=O)c1nc(N2C(=O)C3CC=C(C)CC3C2=O)sc1C (stereo unspecified)	11512	7	1	-25	-17	6.1	3
Cc1nc2ccccc2n1C1CC(=O)N(Cc2ccccc2)C1=O (stereo unspecified)	23623*	-6	5	-26	5	2.3	6
Cc1nc(N)sc1N=Nc1ccc(Br)cc1	9094	62	7	-72	1	12	13
C/C(=N\Nc1ccccc1Cl)c1ccc(-n2ccnc2)cc1	4754	.	.	-19	17	.	.
Cc1nnc(SC(C)C(=O)NC2CCCCC2)s1 (stereo unspecified)	4249	9	0	-19	.	5.1	-9
C=CCc1ccc(OCCCOc2ccc(C(=O)O)cc2)c(OC)c1	3865	26	-6	-31	2	5.2	-7
CCn1c(C)c(C(=O)NCCc2ccccc2)c2cc(OC)ccc21	3710	-5	7	-15	1	-0.7	-1
CCS(=O)(=O)N1Cc2ccccc2CC1C(=O)Nc1cccc(OC)c1 (stereo unspecified)	4118	1	-3	-40	-5	1.0	3
CCCOC1CCCN(C(=O)c2cc(COc3c(F)cccc3F)on2)C1 (stereo unspecified)	6073	8	4	-45	4	1.1	4
CCCCCOc1ccc(NC(=O)CCCC(=O)O)cc1	2541	1	.	-15	3	0.0	.
O=c1cc(O)c2c(=O)n(-c3ccccc3)c3ccccc3c2o1	4355	-6	.	-19	-1	-2.8	.
CC(C)CN(C(=O)CN1CCN(c2ccc(F)cc2)CC1)c1c(N)n(CC(C)C)c(=O)[nH]c1=O	2157	5	3	4	5	3.3	-2
CCCn1cc(C(=O)O)cn1	3340	0	16	-8	6	5.1	8
Cc1cccc(OCc2nnc(SCC(=O)c3c(N)n(C4CC4)c(=O)[nH]c3=O)o2)c1	5365	9	8	7	.	1.7	-4
OCC1(Cc2ccccc2)CCCN(C2CCCC2)C1 (stereo unspecified)	5200	2	-1	-14	9	2.5	-5
Cc1cc(SCC(=O)N/N=C/c2ccc(O)cc2O)c(C)cc1Br	11104	.	.	24	2	.	.
C[n+]1cn(/N=C/c2ccccc2)c2ccccc21	2041	.	.	-2	-2	.	.
CCCS(=O)(=O)Nc1ccc(-c2cn3c(n2)SCC3)cc1	6217	4	-1	-17	-19	1.7	0
CCOC(=O)N1CCN(C(=O)c2c[nH]c3ccc(S(=O)(=O)N(C)c4ccc(F)cc4)cc3c2=O)CC1	5609	3	12	-15	8	1.9	0
Cc1ccc(CN2CCN(N=Cc3cc([N+](=O)[O-])ccc3Cl)CC2)cc1	.	-5	9	.	.	-13	6
CC(C)CN1CC(COCc2ccccc2)Oc2ccccc2S1(=O)=O (stereo unspecified)	2910	10	-9	-6	.	-0.3	-5
CC(=O)Nc1ccccc1C(=O)C(=O)O	3442	1	-1	-16	1	-9.6	8
COC(=O)c1ccc(S(=O)(=O)NCCc2ccccc2OC)n1C	4205	0	2	-18	3	5.9	1
O=C(Nc1ccc(S(=O)(=O)N2CCCCC2)cc1)C1CC(=O)N(c2ccc(F)cc2)C1 (stereo unspecified)	4270	-7	2	-25	-3	-1.0	-8
Cc1nc(N2CCN(c3ccccc3)CC2)nc2c1C(=O)CC(c1ccccc1)C2 (stereo unspecified)	17903*	-5	8	-24	-4	-1.3	10
Cc1noc(C)c1C(=O)N1CCC(Cc2ccccc2)CC1	22708*	9	6	-7	0	4.2	3
O=C(COc1ccc(Cl)cc1Cl)N/N=C/c1ccccn1	5788	.	.	-6	9	.	.

# Some of these compounds in order of formula weight, falling:
SMILES	Bead autofluor	ugtP null kill	Mtb hypoxia inh	PrP UTR inh	BJeLR lethal	Sa RN4220 lethal	Mtb hypoxia inh growth
Cc1cc(SCC(=O)N/N=C/c2ccc(O)cc2O)c(C)cc1Br	11104	.	.	24	2	.	.
CC(C)CN1CC(COCc2ccccc2)Oc2ccccc2S1(=O)=O (stereo unspecified)	2910	10	-9	-6	.	-0.3	-5
COC(=O)c1ccc(S(=O)(=O)NCCc2ccccc2OC)n1C	4205	0	2	-18	3	5.9	1
CCCS(=O)(=O)Nc1ccc(-c2cn3c(n2)SCC3)cc1	6217	4	-1	-17	-19	1.7	0
CCCn1cc(C(=O)O)cn1	3340	0	16	-8	6	5.1	8

# New compounds follow
SMILES	Bead autofluor	ugtP null kill	Mtb hypoxia inh	PrP UTR inh	BJeLR lethal	Sa RN4220 lethal	Mtb hypoxia inh growth
CCOC(=O)c1ccc(NC(=O)CNNC(=O)COc2ccccc2C)cc1	4237	-7	18	-12	.	2.1	6
COc1cccc(NC(=O)CSCc2cc(=O)n3ccsc3n2)c1	4920	2	3	-3	13	-1.7	-4
CC(C)CCN(C(=O)CNC(=O)c1cccs1)C(C(=O)NC1CCCC1)c1ccncc1 (stereo unspecified)	3247	0	4	-14	-3	-0.3	1
Cc1ccc(C)c(NC(=O)CSc2ccc(-c3ccco3)nn2)c1	7216	9	5	-24	-4	0.4	7
COc1ccc(OC)c(CCNC(=O)c2ccc(NC3=NC4CS(=O)(=O)CC4S3)cc2)c1 (stereo unspecified)	6665	5	4	-17	4	6.6	-1
O=C1CC(NCc2cccs2)C(=O)N1c1ccc(Cl)cc1 (stereo unspecified)	2980	3	.	-7	-6	2.0	.
O=C(COC(=O)CSc1ccc(F)cc1)NCc1ccco1	2785	-1	1	-1	.	1.3	-1
COc1ccc(C(C)=NNC(=O)C2C3CCCCC32)c(OC)c1 (stereo unspecified)	.	2	3	.	.	1.4	1
N/C(=N\OS(=O)(=O)c1cc(Cl)ccc1Cl)c1ccncc1	9640	2	10	-15	4	4.2	2
CCNS(=O)(=O)c1ccc2c3c(cccc13)C(=O)N2	8796	-2	2	-16	2	4.7	6
O=C(Nc1cc(S(=O)(=O)N2CCCC2)ccc1Cl)c1cc(F)c(F)c(F)c1F	3512	-4	3	-16	.	7.4	4
Cn1c(=O)c2c(nc(CN3CCN(CCO)CC3)n2CCc2ccccc2)n(C)c1=O	5910	9	-2	0	11	-5.9	-1
O=C(CCN1C(=O)c2ccccc2C1=O)Nc1ccncc1	2684	9	.	-17	-5	-3.7	.
Cc1ccc(N(CC(=O)N/N=C/c2cccc(Br)c2)S(C)(=O)=O)cc1	2048	.	.	-22	-2	.	.
CCCNC(=O)C1(CC2CC(c3ccccc3)=NO2)CCN(C(=O)C2CCCC2)CC1 (stereo unspecified)	3940	-4	6	-1	.	3.7	3
COc1ccc(CC(=O)NNC(=O)CCc2ccccc2)cc1OC	4256	-1	3	5	-18	2.4	2
CC(=O)Nc1ccc(S(=O)(=O)NCCSCc2ccco2)cc1	7196	2	14	-13	7	3.4	7
CCOC(=O)c1cnc2ccc(C)cc2c1Sc1ccccc1C(=O)OC	2680	6	.	-16	0	3.6	.
O=C(COC(=O)c1ccc(S(=O)(=O)N2CCOCC2)cc1)Nc1nc(-c2ccccc2)cs1	2848	-6	8	-16	-5	-13	7
CCOc1ccc(N(CC(=O)Nc2ccccc2C)S(=O)(=O)c2c(C)noc2C)cc1	5613	11	.	-37	44	3.5	.
Cc1ccc2nc(C(Cl)(Cl)Cl)nc(NN=Cc3ccncc3)c2c1	.	-8	10	.	.	7.7	-5
COC(=O)NN=C/C=C/c1ccc2c(c1)OCO2	.	4	6	.	.	-9.0	4
C=CCSc1n[nH]c2nc3c(c(=O)n12)C1(CCCC1)Cc1ccccc1-3	3142	21	1	-9	.	7.9	9
CC1(C(=O)N2CC3(CC(c4cccc([N+](=O)[O-])c4)=NO3)CC2C(=O)NCC(N)=O)CC1 (stereo unspecified)	.	2	0	.	.	5.4	5
CCOC(=O)N1CCN(S(=O)(=O)c2c(C(=O)N3CCCCC3)c(C)n(C)c2C)CC1	4860	8	13	7	16	3.9	3
O=C(CN(Cc1ccc(F)cc1)C(=O)CNS(=O)(=O)c1ccc(Cl)cc1)NCC1CCCO1 (stereo unspecified)	6277	-2	23	-8	-4	3.7	9
O=C(Nc1ccc2c(c1)OCO2)c1ccc(N2C(=O)c3ccccc3C2=O)cc1	2152	7	-5	-25	1	5.7	3
O=C(NCc1ccncc1)C(=O)NCC1OCCCN1S(=O)(=O)c1ccccc1 (stereo unspecified)	2542	1	13	-26	5	2.3	9
Cc1nonc1NC(=O)CSc1nnc(-c2ccoc2C)n1C	3880	0	7	-17	4	-4.6	11
Cn1nnnc1NCc1ccc(Cl)cc1	3366	-13	-9	-3	-1	-0.8	1
S=C(Nc1ccc(Cl)cc1Cl)N1CCN(c2ccccn2)CC1	3328	-1	0	-44	7	3.3	2
CCOC(=O)C1(CCc2ccccc2)CCN(Cc2ccc(C(=O)OC)cc2)CC1	?	20	11	-4	3	5.5	5
Cc1ccc(C2C3=C(CC(C)(C)CC3=O)Nc3n[nH]c(C)c32)cc1 (stereo unspecified)	2433	9	11	-5	-3	9.7	11
